# RanGTP-Impb inh: inhibitors of RanGTP-importin-beta interaction, primary screen, biochemical, FRET, CFP-Ran, YFP-importin-beta, homogeneous; cell-free CFP-Ran/YFP-importin-beta FRET ratio; AID 2216, 2009; hit rate 1.1% among 300,000; Ran GTPase (GTP-bound) - importin-beta complex; inhibition, % (no concentration beside the values);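 active = most replicates above 15%; inconclusive = exactly half above 15%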;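 also: 0% = DMSO wells and 100% = Ran loaded with GDP instead of GTP; wells of about 40 µL received 100 nL stock; the first replicate is given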
# ALR H2O2 inh: inhibitors of human ALR sulfhydryl oxidase, primary screen, biochemical, H2O2 detection, HRP-luminol luminescence, single point; hit rate 3.8% among 290,000; inhibition, % (concentration not given with the values); purified ALR, DTT oxidation; FAD-linked sulfhydryl oxidase ALR (Homo sapiens), P55789;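 active = mean and each replicate at 75% or more; inconclusive = only one of the two met; inactive = neither met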;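 also: stock transfer was 7.5 nL into about 7.5 µL; 0% = neutral wells and 100% = wells with inactivated enzyme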
# Target sequence (P55789 whole entry, looked up): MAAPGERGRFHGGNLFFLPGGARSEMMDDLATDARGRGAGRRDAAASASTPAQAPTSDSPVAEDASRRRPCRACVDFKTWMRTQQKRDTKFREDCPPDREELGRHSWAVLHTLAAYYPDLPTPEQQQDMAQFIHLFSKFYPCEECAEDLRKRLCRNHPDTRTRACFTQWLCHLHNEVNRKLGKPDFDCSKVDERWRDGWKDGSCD
# Beta apoptosis: inhibitors of cytokine-induced beta cell apoptosis, primary screen, luminescence | hit rate 0.8% among 300,000 | protection from apoptosis, % (test concentration not listed) | INS-1E cytokine-induced death, ATP luminescence, 48 h; percent of positive-control rescue, neutral wells zero;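 active = all replicates at 75% or more, or half of them and the mean; inconclusive = half reach 75% but not the mean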;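 also: 0% = cytokine-treated negative control wells and 100% = positive control rescue; higher means more ATP so stronger rescue from cytokine killing; wells of about 40 µL received 100 nL stock; the first replicate is given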
# MLL AF4-AF9 inh: inhibitors of AF4 peptide binding to AF9, primary screen, biochemical, AlphaScreen, biotin-AF4 peptide, FLAG-AF9, single point; hit rate 0.47% among 350,000; Protein AF-9 (Homo sapiens), P42568; AID 651704, 2012; inhibition, % at 10 µM;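 active = every replicate reaching a set inhibition limit, whatever the replicate mean, cut at about 25% in these data; inconclusive = mean inhibition reaches that limit but some replicates miss it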;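 also: 0% = plate neutral control median and 100% = total signal loss; the record names both 10 and 1 µM as test concentration; the first replicate is given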
# Target sequence (P42568 whole entry, looked up): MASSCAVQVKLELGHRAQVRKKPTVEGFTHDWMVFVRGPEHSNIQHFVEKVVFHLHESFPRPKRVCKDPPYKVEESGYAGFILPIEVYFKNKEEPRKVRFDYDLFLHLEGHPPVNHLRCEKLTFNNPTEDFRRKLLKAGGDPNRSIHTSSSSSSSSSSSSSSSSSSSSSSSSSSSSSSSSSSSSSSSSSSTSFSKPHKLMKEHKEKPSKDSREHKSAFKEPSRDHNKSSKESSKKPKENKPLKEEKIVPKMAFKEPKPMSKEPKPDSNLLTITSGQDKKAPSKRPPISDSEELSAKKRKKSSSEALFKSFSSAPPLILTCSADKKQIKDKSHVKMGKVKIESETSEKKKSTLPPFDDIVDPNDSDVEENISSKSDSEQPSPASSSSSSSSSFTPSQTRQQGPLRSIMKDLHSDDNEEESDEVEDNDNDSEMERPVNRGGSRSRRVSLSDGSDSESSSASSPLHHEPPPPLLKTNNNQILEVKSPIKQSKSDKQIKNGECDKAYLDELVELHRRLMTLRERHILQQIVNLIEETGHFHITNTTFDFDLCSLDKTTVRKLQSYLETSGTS
# FGF22 binding: binders of human FGF22 protein, primary screen, FGF22 synaptogenesis inhibitor project, biophysical, thermal shift, single point; recombinant FGF22 thermal shift, SYPRO orange fluorescence; percent of sucrose octasulfate shift, DMSO zero; hit rate 1.5% among 340,000; calls only at 9.99 µM; Fibroblast growth factor 22 (Homo sapiens), Q9HCT0;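 active = melting point raised past a set limit in the mean and every replicate; inconclusive = no clear call; three in four hits are not shown here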
# Target sequence (Q9HCT0 whole entry, looked up): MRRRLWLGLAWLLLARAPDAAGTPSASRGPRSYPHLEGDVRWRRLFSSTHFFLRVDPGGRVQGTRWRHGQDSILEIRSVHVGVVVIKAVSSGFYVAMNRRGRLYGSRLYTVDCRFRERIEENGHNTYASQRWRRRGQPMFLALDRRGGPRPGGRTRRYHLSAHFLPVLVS
# Calb FLC: C. albicans growth inhibition with fluconazole, primary screen, CaCi-2 strain, Alamar Blue fluorescence; AID 1979, 2009; hit rate 0.57% among 300,000; growth inhibition, % (no concentration beside the values); C. albicans CaCi-2 (fluconazole-resistant clinical isolate) + fluconazole, 48 h;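 active = most replicates above 75%; inconclusive = exactly half above 75%; inactive = most below 75%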;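 also: all wells also contain fluconazole at 8 µg/ml as a sub-toxic cotreatment; 0% = median of DMSO wells and 100% = median of geldanamycin control wells; wells of about 8 µL received 7.5 nL stock; the first replicate is given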
# Ecoli rRNA inh: reduced GFP signal of wild-type E. coli, primary screen, bacterial rRNA inhibitor project, GFP/RFP fluorescence, OD600, single point | E. coli WT GFP vs humanized-ribosome RFP mutants, 24 h; stronger effect = lower value; DMSO median 0, no signal -100 | GFP signal change (wild-type ribosome), % (test concentration not listed) | hit rate 1.6% among 350,000 | AID 720706, 2013;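 active = significant combined selectivity score with lowered wild-type GFP, culture density cut under 30%, mutant RFP and density less affected; inactive = any of these conditions unmet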; also: one replicate is shown; some compounds called inactive have numbers as strong as hits
# T cruzi inh: inhibitors of intracellular T. cruzi growth, primary screen, luminescence, NIH3T3 host cells; T. cruzi beta-gal in NIH3T3, 90 h; inhibition, % (no concentration beside the values); hit rate 1.4% among 300,000;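 active = mean inhibition across valid replicates above about 55%, limit read from the data; inconclusive = mean below that limit but half or more replicates reach it; inactive = mean below it, under half of replicates reach it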;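 also: signal also drops with host cell toxicity which is not excluded here; 0% = plate median of DMSO wells and 100% = zero luminescence signal; higher percent means less beta-gal luminescence so fewer parasites; stock transfer was 50 nL into about 50 µL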
# Ecoli rRNA inh OD600: second read-out of Ecoli rRNA inh, no call of its own (marks repeat the call); OD600 change, %; measured here: OD600 growth;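 optical density of the mix in the first replicate; 0 = DMSO median and -100 = no signal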
# Ecoli rRNA inh RFP: second read-out of Ecoli rRNA inh, no call of its own (marks repeat the call); RFP signal change, %; measured here: RFP humanized mutant strains;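 first replicate; 0 = DMSO median and -100 = no signal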
# Numbers without * were called inactive; i = inactive; ? = inconclusive; · = no result given. A portion of the library; rates above refer to the full screens.
SMILES,RanGTP-Impb inh,ALR H2O2 inh,Beta apoptosis,MLL AF4-AF9 inh,FGF22 binding,Calb FLC,Ecoli rRNA inh,Ecoli rRNA inh OD600,Ecoli rRNA inh RFP,T cruzi inh
Cc1cc(C)n2nc(C(=O)OC(C)C(=O)c3ccccc3)nc2n1 (stereo not drawn),2.2,·,·,-0.2,i,-2,13,13,0.9,-15
COc1ccccc1C(c1nnnn1CS(=O)(=O)c1ccc(C)cc1)N1CCSCC1 (stereo not drawn),5.2,-3,3,·,·,13,·,·,·,17
CC(C)Cc1nc(N2CCN(C(=O)C(C)C)CC2)c(C#N)c2c1CCC2,?,2,7,·,·,-4,·,·,·,22
COc1cccc(NC(=O)C(Sc2nc3ccccc3c(=O)n2CC(C)C)c2ccccc2)c1 (stereo not drawn),-1.9,-3,3,-1.3,i,8,·,·,·,11
O=C(NCc1ccco1)C1CCCN(S(=O)(=O)c2cc(Cl)ccc2Cl)C1 (stereo not drawn),5.0,3,1,-0.7,i,-13,13,19,1.9,14
O=C(Cn1ncc2c3ccccc3n(Cc3ccccc3)c2c1=O)N1CCN(c2ncccn2)CC1,2.1,3,-3,·,·,-1,·,·,·,12
CC(C)N(Cc1cnn(C)c1)Cc1nc(Cc2ccccc2Cl)no1,9.3,·,3,-1.4,i,33,-4,-2,4.0,-3
c1ccc2c(c1)CC(N1CCCCC1)c1ccccc1N2 (stereo not drawn),-1.6,85*,-1,·,·,-2,·,·,·,16
Cc1cc(C)n(C(=O)c2ccc(S(=O)(=O)NCC3CCCO3)cc2)n1 (stereo not drawn),1.0,5,2,·,·,-7,·,·,·,-6
CCOc1cc(C(=O)OC(C)C(=O)Nc2ccc(NC(C)=O)cc2)ccc1OCC(=O)N1CCCCC1 (stereo not drawn),-1.5,3,·,0.8,i,-2,2,1,-3.3,-20
CCCNC(=S)N1CCN(Cc2ccc3c(c2)OCO3)CC1,-0.8,-2,-2,-1.2,i,-25,25,23,2.2,-1
CCCN1CCC(=O)N([C@H](CSc2ccccc2)c2ccccc2)CC1,4.0,7,3,-33,i,-33,-18,-12,-12,8
O=C(OCn1ncc(Br)c(Br)c1=O)c1ccc(F)cc1,0.0,41,100*,·,·,-11,·,·,·,51
O=C(CCCOc1ccc(Cl)cc1Cl)NN1CCOCC1,-3.0,-2,1,·,·,10,·,·,·,5
COc1ccc(C(=O)CC(Nc2ccc([N+](=O)[O-])cc2)c2ccc(OC)cc2)cc1 (stereo not drawn),-2.0,1,3,·,·,-10,·,·,·,·
Cc1ccc(S(=O)(=O)NNC(=O)c2cc3cc4ccccc4nc3s2)cc1,-2.8,13,·,·,·,32,·,·,·,-4
Cc1ccc(-c2nc3sc4c(N)ncnc4c3c3c2CCCC3)cc1,-2.3,0,·,·,·,-27,·,·,·,1
O=c1oc2ccccc2c(N2CCOCC2)c1[N+](=O)[O-],1.6,-2,-2,-2.5,i,-14,0,3,-2.2,-7
O=C(Nc1ccon1)c1ccc(Cl)c(S(=O)(=O)N2CCCCC2)c1,2.4,-10,-3,-1.8,i,-15,3,0,-2.1,1
CCOc1cc(/C=N/N=C2/NC(=O)C(CC(=O)O)S2)ccc1OCc1ccc(Cl)cc1 (stereo not drawn),0.3,18,4,1.8,i,?,-4,0,-1.8,-13
NC(=O)c1ccc(NC(=O)CSc2nnc(-c3ccc4c(c3)OCO4)o2)cc1,·,-1,-2,-1.7,i,·,15,11,-3.3,·
Cc1nc2nc(COc3ccccc3)[nH]n2c(=O)c1Cc1ccccc1,-0.9,-7,2,·,·,-21,·,·,·,-4
O=C(c1ccc(-n2cncn2)c([N+](=O)[O-])c1)N1CCN(S(=O)(=O)c2ccc(Br)cc2)CC1,6.1,-6,2,-15,i,·,-3,3,-2.0,38
COc1ccc(-c2nc(CN(Cc3cnn(C)c3)C(C)C)c(C)o2)c(OC)c1,1.3,-1,6,-0.8,i,-5,3,9,-0.4,-3
CCOC(=O)C(CC)/C(C)=N\NC(=O)c1ccccc1O (stereo not drawn),1.3,24,33,3.1,i,?,4,6,-4.9,6
Cc1cccc2nc(CSc3ccccc3N)cn12,4.3,54,4,·,·,-2,·,·,·,-17
COc1cccc(NC(=O)COc2coc(CN3CCc4ccccc4C3)cc2=O)c1,-0.7,0,·,-0.9,i,-4,-1,4,2.6,1
CC1(C)Cc2c(cnn2-c2cccc(F)c2)C(NC(=O)c2ccc[n+]([O-])c2)C1 (stereo not drawn),?,-18,-4,-0.6,i,-6,10,16,3.4,-11
Cc1ccc(NC(=O)C2CCN(C(=O)c3ccco3)CC2)cc1C,-2.1,-14,-3,-3.3,i,-2,2,-7,-0.7,-4
Nc1ccc2c(c1)Cc1cc([N+](=O)[O-])ccc1-2,-16,-1,11,2.5,i,-1,-16,0,-3.9,-13
COCCSc1nnc(NS(=O)(=O)c2ccccc2)s1,0.1,-8,-3,-3.2,i,-12,2,6,-2.0,14
CSc1ccc(Cl)c(C(=O)OCC(=O)N(C)CCC#N)c1,-0.2,-7,4,-4.0,i,-9,11,4,3.1,-11
Cc1cccc(-n2nnnc2SCC(=O)NCC2(N3CCOCC3)CCCCC2)c1C,·,1,0,1.5,i,·,-27,-23,0.4,·
COc1cc(/C=C/C(=O)OCC(=O)N2c3ccccc3CC2C)cc(OC)c1OC (stereo not drawn),·,·,-1,5.2,i,·,-9,-33,5.7,·
CC(C)(C)c1ccc(C(=O)NCCN2CCOCC2)cc1,2.5,-1,1,·,i,12,22,8,3.3,-3
Nc1c(C(=O)Nc2ccccc2Cl)nnn1-c1ccc2c(c1)OCCO2,4.5,-6,11,?,i,1,1,10,-2.1,27
CC12CCC(c3c(C(=O)O)nn(-c4ccc(F)cc4)c31)C2(C)C (stereo not drawn),-3.7,0,0,·,·,-6,·,·,·,-14
CC(C)(C)n1nnnc1C(c1ccc(C(F)(F)F)cc1)N(Cc1ccc(F)cc1)Cc1ccco1 (stereo not drawn),2.8,-3,107*,·,·,4,·,·,·,14
COc1cc(/C=C/C(=O)O)cc(S(=O)(=O)Nc2ccccc2C(=O)NCCc2ccccc2)c1OC,-2.1,1,0,-2.1,i,0,2,9,0.9,-8
CC1CCCCC1NC(=O)CCCCCn1c(=S)[nH]c2ccccc2c1=O (stereo not drawn),-3.1,3,4,0.9,i,12,4,3,-2.9,6
CCOc1ccccc1NC(=O)NCCC1=CCCCC1,-3.5,·,-11,·,·,-23,·,·,·,20
COc1ccc2oc(=O)c(/C(C)=N/Nc3ccccc3)cc2c1,?,-9,4,-9.8,i,8,3,2,-1.5,2
O=C(O)CC(c1cccc([N+](=O)[O-])c1)N1Cc2ccccc2C1=O (stereo not drawn),0.5,-1,0,-2.3,i,-15,19,9,7.0,-4
COc1ccc(Br)cc1/C=C/C(=O)Nc1c(C)cccc1C,1.2,-5,6,·,·,-3,·,·,·,33
O=C(O)C(Cc1ccc(O)cc1)N1C(=O)c2ccccc2C1=O (stereo not drawn),-4.4,65,-4,6.3,i,-11,7,5,-0.5,-9
CCOc1ccc(NC(=O)c2nc(SCC)ncc2Cl)cc1,-0.8,-1,8,-0.7,i,-5,9,22,-1.0,23
CCOc1cc2[nH]c(=S)n(CCCN3CCCC3=O)c(=O)c2cc1OCC,-1.2,·,-2,·,·,-1,·,·,·,9
COC(=O)CC1SC(=O)NC1=Nc1cccc(C)c1 (stereo not drawn),9.5,-4,-1,·,·,-18,·,·,·,-11

# Part of the list above in another layout:
Cc1cccc(-n2nnnc2SCC(=O)NCC2(N3CCOCC3)CCCCC2)c1C
  RanGTP-Impb inh = ·
  ALR H2O2 inh = 1
  Beta apoptosis = 0
  MLL AF4-AF9 inh = 1.5
  FGF22 binding = i
  Calb FLC = ·
  Ecoli rRNA inh = -27
  Ecoli rRNA inh OD600 = -23
  Ecoli rRNA inh RFP = 0.4
  T cruzi inh = ·
COc1cc(/C=C/C(=O)OCC(=O)N2c3ccccc3CC2C)cc(OC)c1OC (stereo not drawn)
  RanGTP-Impb inh = ·
  ALR H2O2 inh = ·
  Beta apoptosis = -1
  MLL AF4-AF9 inh = 5.2
  FGF22 binding = i
  Calb FLC = ·
  Ecoli rRNA inh = -9
  Ecoli rRNA inh OD600 = -33
  Ecoli rRNA inh RFP = 5.7
  T cruzi inh = ·
CC(C)(C)c1ccc(C(=O)NCCN2CCOCC2)cc1
  RanGTP-Impb inh = 2.5
  ALR H2O2 inh = -1
  Beta apoptosis = 1
  MLL AF4-AF9 inh = ·
  FGF22 binding = i
  Calb FLC = 12
  Ecoli rRNA inh = 22
  Ecoli rRNA inh OD600 = 8
  Ecoli rRNA inh RFP = 3.3
  T cruzi inh = -3
Nc1c(C(=O)Nc2ccccc2Cl)nnn1-c1ccc2c(c1)OCCO2
  RanGTP-Impb inh = 4.5
  ALR H2O2 inh = -6
  Beta apoptosis = 11
  MLL AF4-AF9 inh = ?
  FGF22 binding = i
  Calb FLC = 1
  Ecoli rRNA inh = 1
  Ecoli rRNA inh OD600 = 10
  Ecoli rRNA inh RFP = -2.1
  T cruzi inh = 27

# Single records, as listed above. Order of values: RanGTP-Impb inh	ALR H2O2 inh	Beta apoptosis	MLL AF4-AF9 inh	FGF22 binding	Calb FLC	Ecoli rRNA inh	Ecoli rRNA inh OD600	Ecoli rRNA inh RFP	T cruzi inh
# c1ccc2c(c1)CC(N1CCCCC1)c1ccccc1N2 (stereo not drawn) across the screens: -1.6	85*	-1	·	·	-2	·	·	·	16
# O=C(NCc1ccco1)C1CCCN(S(=O)(=O)c2cc(Cl)ccc2Cl)C1 (stereo not drawn) across the screens: 5.0	3	1	-0.7	i	-13	13	19	1.9	14
# CCCN1CCC(=O)N([C@H](CSc2ccccc2)c2ccccc2)CC1 across the screens: 4.0	7	3	-33	i	-33	-18	-12	-12	8

# Sorted by number of heavy atoms (highest first): three of the compounds above.
SMILES,RanGTP-Impb inh,ALR H2O2 inh,Beta apoptosis,MLL AF4-AF9 inh,FGF22 binding,Calb FLC,Ecoli rRNA inh,Ecoli rRNA inh OD600,Ecoli rRNA inh RFP,T cruzi inh
COc1cccc(NC(=O)C(Sc2nc3ccccc3c(=O)n2CC(C)C)c2ccccc2)c1 (stereo not drawn),-1.9,-3,3,-1.3,i,8,·,·,·,11
CC(C)N(Cc1cnn(C)c1)Cc1nc(Cc2ccccc2Cl)no1,9.3,·,3,-1.4,i,33,-4,-2,4.0,-3
O=c1oc2ccccc2c(N2CCOCC2)c1[N+](=O)[O-],1.6,-2,-2,-2.5,i,-14,0,3,-2.2,-7
